# Screening results from PubChem.
# NS1 function inh: qHTS Assay for Inhibitors of Influenza NS1 Protein Function | 0.4% of 270,000 active | Potency, µM (top dose mostly 46.1 µM), for inactives: top-dose activity, positive = more growth | S. cerevisiae slowed by influenza A NS1, growth recovery by OD600; note: actives are rising curves; nearly all actives have a fitted effect of over 50% in size
#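 OD600 was taken as the measure of yeast growth restored by compound in an NS1-expressing S. cerevisiae strain. Cells had been washed out of glucose medium and diluted 1:100 into galactose -URA medium, pH 6.0.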
# SARS PLpro yeast: qHTS of Yeast-based Assay for SARS-CoV PLP; 0.19% of 330,000 active; Potency, µM (titrated, usually from 32.9 µM), for inactives: at the top dose activity, positive = growth rescue; AID 485353, 2010; S. cerevisiae expressing SARS-CoV PLpro, growth rescue; control for the full effect not named in the record; note: 0% is about no effect; nearly all actives have a fitted effect of over 55% in size; growth read by luminescence after 48 h
# Marburg entry inh: qHTS for inhibitors of binding or entry into cells for Marburg Virus; Marburg virus pseudotyped entry inhibition, cell reporter; control for the full effect not named in the record; about a third of the inactives were read at about 46 µM; Potency, µM (top dose mostly 37.8 µM), for the others: at the top dose activity change, negative = inhibition, most hits filed as inhibitors; 1.8% of 300,000 active; active = well fitted inhibition curve with a large enough effect; inconclusive = small, poorly fitted or top-dose-only effect, or effect the other way; inactive = flat fitted curve, though single readings scatter; tested in HEK293 cells; about a fifth of its hits are not listed in these tables; note: % is set by controls: 0 for no effect and ±100 for the full control effect; luciferase read-out
# Cruzain noTriton: qHTS Assay for Promiscuous and Specific Inhibitors of Cruzain (without detergent); Potency, µM, inactives show max response, negative = inhibition, most hits filed as inhibitors; AID 1476, 2009; 2.3% of 200,000 active; purified cruzain, Z-FR-AMC fluorescence, no detergent; active = well fitted curve in the direction sought with a large enough effect; inconclusive = small, poorly fitted or top-dose-only effect, or another doubt; inactive = no such curve, though single readings can be large; an effect the other way counts as inactive or inconclusive;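 note: plate controls were enzyme without inhibitor for no effect and buffer without enzyme for full effect; nearly all actives have a fitted effect of over 40% in size; top concentration of the series not given in the record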
# Target sequence (P25779 123-467 limits assumed): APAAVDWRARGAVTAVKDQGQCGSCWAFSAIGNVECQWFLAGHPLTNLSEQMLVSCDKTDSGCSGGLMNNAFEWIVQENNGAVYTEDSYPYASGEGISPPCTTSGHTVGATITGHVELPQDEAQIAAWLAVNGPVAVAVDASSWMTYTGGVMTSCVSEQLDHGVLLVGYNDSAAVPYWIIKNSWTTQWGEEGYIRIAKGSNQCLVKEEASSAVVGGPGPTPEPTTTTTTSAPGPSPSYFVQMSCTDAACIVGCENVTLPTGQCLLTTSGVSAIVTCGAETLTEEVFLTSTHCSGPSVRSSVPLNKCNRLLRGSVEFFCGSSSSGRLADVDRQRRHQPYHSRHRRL
#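 Purified cruzain at 1.5 nM, pre-incubated 15 min with compound at room temperature in 100 mM sodium acetate pH 5.5, 5 mM DTT, 0.00005% Triton X-100. Reaction started with 2 uM Z-FR-AMC; AMC fluorescence increase over 60 s gives rate.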
# 2A StopGo: High Throughput Screening for Foot and Mouth Disease Virus Antivirals; human cells with a luciferase reporter of 2A StopGo recoding; control for the full effect not named in the record; AID 1159524, 2015; Potency, µM (highest dose often 57.9 µM), inactives show at the top dose signal change, negative = less light; 1.2% of 410,000 active; active = well fitted falling curve with a large enough effect; inconclusive = small, poorly fitted or top-dose-only effect; inactive = no such curve, though single readings can be large or run the other way; tested in HEK293T cells; note: % is set by controls: 0 for no effect and ±100 for the full control effect; nearly all actives have a fitted effect of over 45% in size; luciferase light after 4 h
# Cruzain Triton: qHTS Assay for Promiscuous and Specific Inhibitors of Cruzain (with detergent); Cruzipain (Trypanosoma cruzi), P25779; Potency, µM, without a hit: max response, negative = inhibition, usual class: inhibitors; purified cruzain, Z-FR-AMC fluorescence, 0.01% Triton; AID 1478, 2009; 0.43% of 200,000 active; active = well fitted curve in the direction sought with a large enough effect; inconclusive = small, poorly fitted or top-dose-only effect, or another doubt; inactive = no such curve, though single readings can be large; an effect the other way counts as inactive or inconclusive;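 note: plate controls were neutral wells for no effect and buffer without enzyme for full effect; nearly all actives have a fitted effect of over 40% in size; top concentration of the series not given in the record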
#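 15 min RT preincubation of 1.5 nM cruzain with compound, then 2 uM Z-FR-AMC added; kinetic AMC fluorescence, 60 s delta. Triton X-100 0.01%, pH 5.5.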
# RE007 growth inh: qHTS Assay for Inhibitors of the HIV-1 protein Vpr; AID 651644, 2012; Potency, µM (titrated, usually from 92.2 µM), for inactives: at the highest dose activity change, negative = less growth; 0.21% of 360,000 active; S. pombe RE007 Vpr strain, BacTiter-Glo ATP luminescence, 24 h; control for the full effect not named in the record; active = well fitted falling curve with a large enough effect; inconclusive = small, poorly fitted or top-dose-only effect; inactive = no such curve, though single readings can be large or run the other way;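 note: % is set by controls: 0 for no effect and ±100 for the full control effect; nearly all actives have a fitted effect of over 50% in size; the assay follows cell death caused by Vpr and the record does not say whether a fall means rescue or toxicity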
#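 Fission yeast strain RE007, carrying one chromosomally integrated HIV-1 vpr copy, was seeded at OD 0.01 in PMG+AL medium with 23 nL pinned compound. After 24 h at 30 °C and 99% humidity, viability was read by BacTiter-Glo luminescence.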
# Lassa entry inh: qHTS for Inhibitors of binding or entry into cells for Lassa Virus; AID 540256, 2011; Lassa virus pseudotype entry inhibition, cell reporter; control for the full effect not named in the record; Potency, µM (highest dose often 37.9 µM), for inactives: top-dose activity change, negative = inhibition, hits mostly inhibitors; 1.2% of 300,000 active; active means well fitted inhibition curve with a large enough effect; inconclusive means small, poorly fitted or top-dose-only effect, or effect the other way; inactive means flat fitted curve, though single readings scatter; tested in HEK293 cells; note: % is set by controls: 0 for no effect and ±100 for the full control effect; nearly all actives have a fitted effect of over 50% in size; luciferase read-out
# * marks the source's active call; other numbers are inactive results; ? = inconclusive; . = no result given; & = joins results of further samples; [ ] = remark or other dose. Unless noted, calls come from the whole dose curve; as a rule, active means well fitted rising curve with a large enough effect; inconclusive means small, poorly fitted or top-dose-only effect; inactive means no such curve, though single readings can be large or run the other way. Potency is the fitted concentration of half-maximal effect.
# The line under a structure holds: NS1 function inh	SARS PLpro yeast	Marburg entry inh	Cruzain noTriton	2A StopGo	Cruzain Triton	RE007 growth inh	Lassa entry inh
> CC(C)CCNC(=O)c1ccc2c(c1)ncn2C1CCCC1
  .	1%	-12%[46.1 µM]	.	65%[activator]	.	0%	?
> CCCCN(CC)CCNC(=O)c1cn(CCOC)c(=O)c2c1c1ccccc1n2C
  -3%	1%	-7%&-7%[46.1 µM]	6%	5%&-4%	-3.8%	6%	?
> O=C(c1cn(Cc2ccccc2F)c2ncccc12)C(F)(F)F
  7%	-1%	-29%	.	-8%	.	1%	?
> COc1ccccc1/C=C1/C(=O)N(c2ccccc2)N=C1C
  5%	-2%	9%[46.1 µM]	.	2%	.	5%	8%
> Cc1cccc(OCCn2c(=S)[nH]c3ccccc32)c1
  -15%	-20%	3%	-11%	-1%	-20%	-27%	-5%
> CCOC(=O)CSc1nc2c(c(=O)[nH]1)C(C)(CC)Cc1ccccc1-2 (configuration not stated)
  -32%	0%	-28%	.	-8%	.	1%	-9%
> Cc1cccc(OCC(=O)N/N=C/CC(C)c2ccccc2)c1C (configuration not stated)
  6%	0%	-2%	16%	16%	-5.3%	-18%	-1%
> COC(=O)c1cccc(Oc2nc3c(c(=O)n(C)c(=O)n3C)n2C(C)C)c1
  4%	2%	.	5%	?	2.8%	-6%	.
> O=C1CN(CC(=O)Nc2ccc(SC(F)F)cc2)CCN1
  -5%	-4%	-1%[46.1 µM]	13%	5%	0.0%	-5%	12%[46.1 µM]
> Cc1ccc(C(=O)Nc2ccc3nc(SCC(=O)N4CCCc5ccccc54)sc3c2)cc1
  .	.	-29%[46.1 µM]	?	-16%	-6.2%	.	-15%[46.1 µM]
> CCOP(=O)(OCC)C(NC(=O)Nc1cccc(Cl)c1)C(N)=O (configuration not stated)
  4%	15%	-1%	-4%	-8%	-0.6%	22%	.
> COC(=O)CN(c1ccc(OC)cc1)S(=O)(=O)c1c(C)noc1C
  2%	3%	?	3%	-29%	11%	43%	1%
> O=C1CSC2(CCCCC2)N1CCO
  ?	15%	17%	5%	0%	3.6%	10%	-5%
> COc1cccc(NC(=O)CSc2nnc(-c3ccoc3C)n2-c2ccccc2)c1
  -32%	-5%	?	-5%	-23%	-0.6%	9%	?
> COc1ccc(NC(=O)C(C)n2nc(C)c3c(C)n(-c4ccccc4)nc3c2=O)cc1Cl (configuration not stated)
  .	.	.	19%	-31%	-3.0%	.	-7%[46.1 µM]
> CCOC(=O)c1ccc2c(c1)N(C(CC)C(=O)Nc1ccccc1OC)C(=O)c1ccccc1S2 (configuration not stated)
  .	.	.	-21%	9%	-3.4%	.	?
> COC(=O)c1ccc(NC2=CC(=O)CC(C)(C)C2)cc1
  0%	0%	3%	-1%	-11%	1.2%	-20%	-1%
> COc1ccc2nc(N3CCN(C(=O)C4COc5ccccc5O4)CC3)sc2c1 (configuration not stated)
  .	2%	?	.	-28%	.	-12%	15%
> C=C(C)COc1ccc2c(CC)cc(=O)oc2c1
  -13%	-4%	.	.	12%	.	2%	.
> O=C(O)c1ccc(/C=C(\c2nc3ccccc3[nH]2)c2nc3ccccc3s2)cc1
  3%	0%	?	.	-11%	.	-9%	19%
> Cc1cc(C)nc(NS(=O)(=O)c2ccc(NC(=O)C3CC3)cc2)n1
  4%	1%	2%[46.1 µM]	.	42%[activator]	.	-2%	-8%
> CC(=O)Nc1cccc(S(N)(=O)=O)c1C
  2%	0%	.	.	-5%	.	2%	.
> CCn1c(COc2cccc3cccnc23)nnc1SCC(=O)O
  -3%	8%	.	-14%	-6%	1.3%	19%	.
> Cc1ccc(NC(=O)c2cccc(N3C(=O)CCC3=O)c2)nc1
  3%	-2%	6%	-2%	21%	2.3%	-3%	-2%
> CC1CCN(c2ccccc2NC(=S)NC(=O)c2ccc(-c3cccc([N+](=O)[O-])c3)o2)CC1
  1%	10%	2%	7.9µM*	9%	1.7%	14%[3.69 µM]	-9%
> COc1cc(/C=C(\C#N)c2nc(-c3cc4ccccc4oc3=O)cs2)ccc1O
  -7%	4%	2%	8%	0%	-5.0%	-9%	5%
> Cc1ccc(C)c(OCc2cc(C(=O)N(C)Cc3nccs3)no2)c1
  -16%	-10%	0%[46.1 µM]	.	21%	.	1%	17%[46.1 µM]
> Nc1nc(CSC(=S)N2CCN(c3ccccc3)CC2)nc(Nc2ccccc2)n1
  ?	1%	?	-25%	?	-0.6%	-12%	?
> CCC(C)(C)C(=O)Nc1ccc(OC)cc1[N+](=O)[O-]
  ?	2%	8%	-5%	22%	5.0%	-5%	4%
> Cc1ccc(S(=O)(=O)N2CCOCC2)cc1NC(=O)CN(C)C1CCS(=O)(=O)C1 (configuration not stated)
  3%	1%	.	.	-9%	.	-3%	.
> Cc1cccc(NC(=S)N2CCC(c3nc4ccccc4o3)CC2)c1
  .	8%	?	.	-15%	.	-5%	?
> CCC(=O)c1ccccc1OCCN1CCN(Cc2ccccc2)CC1
  2%	0%	-23%[46.1 µM]	.	-27%	.	-15%	-15%
> CCOC(=O)NC(=O)CSc1nnnn1-c1ccc(C)cc1
  -5%	-6%	-13%	-3%	-12%	8.5%	4%	0%
> CCc1cccc(NC(=O)Cn2c(=O)c(C(F)(F)F)nc3ccccc32)c1
  .	.	.	-8%	0%	0.4%	.	?
> COc1ccc(-c2cc(C(=O)N3CCOCC3)no2)cc1OC
  1%	1%	-3%	9%	95%[activator]	2.2%	-6%	5%
> CSc1ccccc1C(=O)Nc1ccc2c(c1)OCO2
  -10%	-1%	11%[46.1 µM]	.	-7%	.	-22%	11%[46.1 µM]
> Cc1cc(N2CCN(Cc3nc(-c4ccc(Cl)cc4)oc3C)CC2)cc(C)n1
  -2%	1%	4µM*	.	-30%	.	-27%	?
> COC(=O)c1sccc1NC(=O)Nc1ccccc1OC
  -2%	-8%	.	.	2%	.	-14%	.
> O=C(COC(=O)c1n[nH]c2ccccc12)NC(=O)NC1CCCC1
  9%	4%	-2%	-6%	?	-6.5%	-1%	2%
> CC(=O)N1[C@H](C)C=C[C@]1(Cc1ccccc1)C(=O)NCc1cc(F)cc(C(F)(F)F)c1
  -2%	14%	5%	-2%&6%	-4%	-0.3%&-2.0%	-12%	-29%
> Cc1cc(C)c2c(-n3cccc3)c(C(=O)NCC(C)c3ccccc3)sc2n1 (configuration not stated)
  .	.	?	15%	-28%	-14%	.	10%[46.1 µM]
> O=C(NC1CCCCC1)C1CCN(C(=O)c2ccc(Cl)cc2)CC1
  -1%	4%	18%	.	-5%	.	0%	4%
> COc1cc(NC(=O)Cn2ccn(Cc3ccccc3OC)c(=O)c2=O)cc(OC)c1
  .	.	.	-2%	29%	-0.3%	.	-17%[46.1 µM]
> CCC(c1nnc(SCC(=O)Nc2ccc(C(=O)Nc3ccccc3OC)cc2)o1)N(C)C (configuration not stated)
  8%	3%	?	?	-24%	-4.8%	-4%	5%
> CCOc1ncccc1C(=O)OCC(=O)c1ccc(F)cc1
  0%	-1%	-2%[46.1 µM]	.	14%	.	-10%	4%
> O=C(NC1CCCCC1)c1cccc(COCC(F)(F)F)c1
  13%	5%	-2%	5%	1%	3.4%	4%	-2%
> O=S1(=O)C=C(SCc2cccc(Cl)c2)Nc2ccccc21
  -9%	-27%	-6%	-4%	-8%	-3.6%	-2%	?
> CCn1c(SCc2nc(-c3ccccc3)no2)nnc1-c1cccs1
  -72%	-5%	-9%	6%	-11%	-2.1%	5%	-16%
> COCCn1c(=O)c2c(nc3n2CCN3c2ccc(C)cc2)n(C)c1=O
  ?	-2%	-1%	2%	.	5.3%	.	.
> CN1CCN(S(=O)(=O)c2ccc(NC(=O)Cc3cccs3)cc2)CC1
  ?	5%	3%	-4%	0%	2.6%	-13%	?

# The list continues.
# The line under a structure holds: NS1 function inh	SARS PLpro yeast	Marburg entry inh	Cruzain noTriton	2A StopGo	Cruzain Triton	RE007 growth inh	Lassa entry inh
> CC(C)OCCCNC(=O)c1cc2c(=O)n(C)c3ccccc3c2n1C
  -12%	3%	6%	?	-28%	4.8%	-3%	.
> Cc1cnc(C(=O)NCc2ccc(F)cc2)cn1
  0%	1%	4%[46.1 µM]	.	18%	.	23%	7%
> COc1ccc(/C=N/N=C/c2ccc(OC)cc2)cc1
  2%	1%	.	.	28%	.	6%	.
> CCOc1cc(CNCc2ccccc2)ccc1OCc1ccc(Cl)cc1
  -11%	-5%	?	.	?	.	9%	?
> Cc1nnc(SCCC(=O)Nc2ccc(Cl)cc2)o1
  5%	-4%	15%	.	-1%	.	-16%	0%
> COc1ccc(C(CC(=O)N2CCN(c3ccccc3)CC2)c2c(OC)cc(OC)c3ccc(=O)oc23)cc1 (configuration not stated)
  ?	1%	.	.	6%	.	-10%	.
> CC1CCN(C(=O)C(NS(=O)(=O)c2cccc3nsnc23)c2ccccc2)CC1 (configuration not stated)
  -2%	0%	-3%	0%	33%[activator]	3.0%	3%	11%
> COc1ccc(C(=O)c2cc3ccc(O)cc3oc2=O)cc1
  -6%	-9%	3%	-20%	.	-5.3%	2%	2%
> Cc1csc(/N=C/N(C)C)c1C#N
  3%	0%	-1%[46.1 µM]	.	5%	.	2%	7%
> CCN(CC)S(=O)(=O)c1ccc2oc(C(=O)N(C)Cc3ccccc3)c(C)c2c1
  .	.	1%[46.1 µM]	-1%	-14%	-5.3%	.	?
> CCOC(=O)Cn1cc(Cl)c(=O)c(Cl)c1
  6%	0%	?	.	-12%	.	9%	21%
> CC(=O)Nc1nonc1-c1nnc(SCC(=O)Nc2ccc(C)c(Cl)c2)n1-c1ccccc1
  .	.	4%[46.1 µM]	-6%	?	-2.4%	.	-2%[46.1 µM]
> CCCC(=O)Nc1ccccc1Sc1ncnc2scc(-c3ccccc3)c12
  6%	-7%	4%	12%	-23%	-7.0%	11%	2%
> Cc1c(C)n(C(=O)CSc2nccn2C)c2ccccc12
  -31%	-4%	-9%&-9%	4%	0%	0.3%	-23%	3%
